# Cruzain noTriton = inhibitors of Trypanosoma cruzi cruzain without detergent; purified cruzain, Z-FR-AMC fluorescence, no detergent; Potency, µM, without a hit: max response, negative = inhibition, most hits filed as inhibitors; actives 2.3% (n = 200,000); AID 1476; active = well fitted curve in the direction sought with a large enough effect; inconclusive = small, poorly fitted or top-dose-only effect, or another doubt; inactive = no such curve, though single readings can be large; an effect the other way counts as inactive or inconclusive;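 also: plate controls were enzyme without inhibitor for no effect and buffer without enzyme for full effect; nearly all actives have a fitted effect of over 40% in size; top concentration of the series not given in the record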
# Target sequence (P25779 123-467 limits assumed): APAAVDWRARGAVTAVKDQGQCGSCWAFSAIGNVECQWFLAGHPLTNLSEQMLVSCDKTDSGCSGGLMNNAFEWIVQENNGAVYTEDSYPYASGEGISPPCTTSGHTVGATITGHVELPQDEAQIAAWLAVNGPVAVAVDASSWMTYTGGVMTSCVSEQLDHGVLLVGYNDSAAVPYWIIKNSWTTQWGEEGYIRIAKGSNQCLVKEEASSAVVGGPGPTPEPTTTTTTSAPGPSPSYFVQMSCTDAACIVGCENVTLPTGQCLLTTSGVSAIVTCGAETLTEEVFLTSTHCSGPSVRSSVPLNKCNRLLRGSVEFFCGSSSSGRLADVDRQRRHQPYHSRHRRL
#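 Detergent-free condition (0.00005% Triton X-100) in acetate buffer pH 5.5 with DTT. 1.5 nM enzyme and compound were pre-mixed 15 min, then 2 uM Z-FR-AMC substrate added; reaction progress from fluorescence change between first and third reads (60 s).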
# Cruzain Triton = blocks cruzain activity in presence of Triton detergent. actives 0.43% (n = 200,000). Potency, µM, without a hit: max response, negative = inhibition, hits mostly inhibitors. purified cruzain, Z-FR-AMC fluorescence, 0.01% Triton. AID 1478; active = well fitted curve in the direction sought with a large enough effect; inconclusive = small, poorly fitted or top-dose-only effect, or another doubt; inactive = no such curve, though single readings can be large; an effect the other way counts as inactive or inconclusive;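 also: plate controls were neutral wells for no effect and buffer without enzyme for full effect; nearly all actives have a fitted effect of over 40% in size; top concentration of the series not given in the record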
#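 Enzyme 1.5 nM, Z-FR-AMC 2 uM, NaOAc 100 mM pH 5.5, DTT 5 mM, Triton X-100 0.01%; 15 min RT compound preincubation; kinetic ex360/em450, 60 s delta.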
# 2A StopGo = lowers the luciferase signal of an FMDV 2A StopGo reporter. human cells with a luciferase reporter of 2A StopGo recoding; control for the full effect not named in the record. actives 1.2% (n = 410,000). Potency, µM (titrated, usually from 57.9 µM), inactives show at the highest dose signal change, negative = less light; active = well fitted falling curve with a large enough effect; inconclusive = small, poorly fitted or top-dose-only effect; inactive = no such curve, though single readings can be large or run the other way; tested in HEK293T cells; also: % is scaled to controls: 0 for no effect and ±100 for the full control effect; nearly all actives have a fitted effect of over 45% in size; luciferase light after 4 h
# Marburg entry inh = inhibitors of Marburg virus binding or cell entry; AID 540276; Marburg virus pseudotyped entry inhibition, cell reporter; control for the full effect not named in the record; about a third of the inactives were read at about 46 µM; Potency, µM (top dose mostly 37.8 µM), without a hit: at the highest dose activity change, negative = inhibition, actives largely listed as inhibitors; actives 1.8% (n = 300,000); active = well fitted inhibition curve with a large enough effect; inconclusive = small, poorly fitted or top-dose-only effect, or effect the other way; inactive = flat fitted curve, though single readings scatter; tested in HEK293 cells; about a fifth of its hits are not listed in these tables; also: % is scaled to controls: 0 for no effect and ±100 for the full control effect; luciferase read-out
# RE007 growth inh = less growth of the S. pombe RE007 Vpr strain | S. pombe RE007 Vpr strain, BacTiter-Glo ATP luminescence, 24 h; control for the full effect not named in the record | Potency, µM (highest dose often 92.2 µM), without a hit: at the top dose activity change, negative = less growth | actives 0.21% (n = 360,000); active = well fitted falling curve with a large enough effect; inconclusive = small, poorly fitted or top-dose-only effect; inactive = no such curve, though single readings can be large or run the other way;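 also: % is scaled to controls: 0 for no effect and ±100 for the full control effect; nearly all actives have a fitted effect of over 50% in size; the assay follows cell death caused by Vpr and the record does not say whether a fall means rescue or toxicity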
#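 Fission yeast strain RE007, carrying one chromosomally integrated HIV-1 vpr copy, was seeded at OD 0.01 in PMG+AL medium with 23 nL pinned compound. After 24 h at 30 °C and 99% humidity, viability was read by BacTiter-Glo luminescence.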
# LASV entry inh = Lassa virus entry inhibition | Lassa virus pseudotype entry inhibition, cell reporter; control for the full effect not named in the record | Potency, µM (doses to about 37.9 µM), inactives show at the top dose activity change, negative = inhibition, usual class: inhibitors | actives 1.2% (n = 300,000) | AID 540256; active means well fitted inhibition curve with a large enough effect; inconclusive means small, poorly fitted or top-dose-only effect, or effect the other way; inactive means flat fitted curve, though single readings scatter; tested in HEK293 cells; also: % is scaled to controls: 0 for no effect and ±100 for the full control effect; nearly all actives have a fitted effect of over 50% in size; luciferase read-out
# SARS PLP yeast = blocks SARS-CoV papain-like protease in a yeast assay; S. cerevisiae expressing SARS-CoV PLpro, growth rescue; control for the full effect not named in the record; AID 485353; actives 0.19% (n = 330,000); Potency, µM (titrated, usually from 32.9 µM), without a hit: top-dose activity, positive = growth rescue; also: 0% is about no effect; nearly all actives have a fitted effect of over 55% in size; growth read by luminescence after 48 h
# NS1 inh = influenza NS1 inhibition; S. cerevisiae slowed by influenza A NS1, growth recovery by OD600; Potency, µM (titrated, usually from 46.1 µM), for inactives: top-dose activity, positive = more growth; actives 0.4% (n = 270,000); also: actives are rising curves; nearly all actives have a fitted effect of over 50% in size
#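 Growth recovery, yeast-based: influenza A NS1 expressed in S. cerevisiae causes slow growth, and suppressors are detected by OD600. The parent strain without NS1 is used as positive control.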
# Numbers without * were called inactive; ? = inconclusive; . = not tested or not shown; & = joins results of further samples; [ ] = another dose, or the depositor's remark. Unless noted, calls follow the shape of the dose curve; as a rule, active means well fitted rising curve with a large enough effect; inconclusive means small, poorly fitted or top-dose-only effect; inactive means no such curve, though single readings can be large or run the other way. Potency is read from the fitted curve at half-maximal effect. Hits appear at their usual frequency; about 4.5% have a hit in one of these screens.
SMILES,Cruzain noTriton,Cruzain Triton,2A StopGo,Marburg entry inh,RE007 growth inh,LASV entry inh,SARS PLP yeast,NS1 inh
Cc1ccc(NC(=O)CN(C)C(=O)COC(=O)C(C)(C)Oc2ccc(Cl)cc2)cc1,.,.,-25%,-6%,-15%,-1%,0%,-34%
Oc1ccc(N=Cc2cc(Br)c(N3CCOCC3)o2)cc1,1%,-8.0%,-6%,2%,1%,1%,-7%,21%
Cc1cc(CN(C)C(=O)c2cc(COc3ccc4ncccc4c3)on2)on1,.,.,?,?,12%,?,-2%,-4%
C=CCn1c(SCC(=O)Nc2c(C)n(C)n(-c3ccccc3)c2=O)nc2sc(C)c(-c3ccccc3)c2c1=O,?,-4.5%,-27%,?,25%,?,2%,-10%
Cc1csc(NC(=O)c2sccc2C)n1,.,.,-16%,?,-27%,-10%[46.1 µM],-5%,-1%
c1ccc2c(c1)CCc1c-2nc2ccccc2c1N1CCOCC1,.,.,-14%,.,-21%,.,-2%,-8%
COc1ccc(N2CCN(C(=O)c3cccc(-n4c(C)nc5cccnc54)c3)CC2)cc1,7%,-2.2%,?,.,.,5%[46.1 µM],.,.
O=C(NCCCN=C1NS(=O)(=O)c2ccccc21)c1ccc(S(=O)(=O)N2CCCCC2)cc1,6%,4.6%,46%[activator],-15%&-15%,7%,9%,-3%,-8%
COc1ccc(-c2noc(CCC(=O)NCc3ccc(C)cc3)n2)cc1,7%,-0.4%,24%,17%[46.1 µM],.,9%[46.1 µM],.,.
COC(=O)N/N=C/c1ccc(/C=N/NC(=O)OC)cc1,.,.,-3%,-7%[46.1 µM],20%,0%,0%,0%
COc1ccc(CNC(=O)CN(C(=O)c2csnn2)c2cccc3ccccc23)cc1,.,.,40%[activator],-21%[46.1 µM],2%,7%,-10%,10%
CCCc1nnc(NC(=O)c2cccc(OC)c2)s1,5%,1.0%,22%,14%,-2%,22%,4%,-122%
COc1ccc(-c2nc3oc4cc(OC)ccc4c(=O)c3c(=O)n2Cc2ccco2)cc1,1%,-5.1%,-16%,0%,-18%,-2%,-41%,-86%
O=C(Nc1nc2ccccc2s1)C1CC(=O)N(c2ccc(Cl)cc2)C1 (stereo not given),-10%,-0.2%,-13%,-19%[46.1 µM],3%,-2%,-5%,-6%
COc1ccccc1C1CCN(C(=O)c2ccccc2)CC1,.,.,-23%,.,-6%,.,3%,-35%
COc1ccc(S(=O)(=O)NC(C)C(=O)O)cc1 (stereo not given),-6%,5.8%,.,7%,6%,6%,4%,1%
CCOCCCNC(=O)C1CCN(S(=O)(=O)c2cc(Br)cc3c2N(C(=O)CC)CC3)CC1,.,.,-5%,8%[46.1 µM],0%,3%[46.1 µM],0%,-12%
C=CCN1C(=O)c2ccc(C(=O)Nc3ccccn3)cc2C1=O,.,.,11%,2%,-13%,2%,-3%,.
COc1cc(C(=O)NCc2nnc(SCC(=O)N3CCc4ccccc43)o2)cc(OC)c1OC,24%,1.4%,-12%,15%,-1%,15%,-1%,-3%
CC/C(C)=N/NC(=O)c1[nH]c2ccc(C)cc2c1-c1ccccc1,.,.,-14%,?,6%,?,-1%,17%
COc1ccc(-c2ccc(-c3cc(=O)oc4c(C(C)C)ccc(C)c34)cc2)cc1,?,2.3%,-17%,.,-5%,.,-4%,.
CCCOc1ccc2c(CC)cc(=O)oc2c1C,3%,-3.7%,14%,?,-1%,13%,-3%,-5%
CC1=C(C(=O)OCc2ccccc2)C(c2ccc3ccccc3c2)NC(=O)N1CCCC(=O)O (stereo not given),.,.,-16%,.,-5%,.,-3%,11%
O=C(CSc1ccc2nnc(CCNC(=O)c3ccccc3)n2n1)NCc1ccccc1,.,.,-10%,1%,2%,?,6%,17%
CCOC(=O)C1(CCOc2ccccc2)CCN(Cc2cccc(OC)c2OC)CC1,.,.,?,?,-23%,?,3%,-9%
Brc1ccc(-c2csc(NNC3=NCCCCC3)n2)cc1,-15%,-2.7%,29%,-13%,32%,?,-20%,?
O=C(CCC1CCCN(C(=O)c2ccccc2Cl)C1)N1CCN(c2ccccn2)CC1 (stereo not given),.,.,-28%,-25%[46.1 µM],-5%,-12%[46.1 µM],-3%,-17%
C=CCNC(=O)C1CC(=O)N(c2ccc(OCc3ccccc3Cl)cc2)C1 (stereo not given),.,.,33%[activator],?,18%,-3%[46.1 µM],0%,-6%
COC(=O)C1CCN(C(=O)C2CCC(=O)N(CCc3cccc(F)c3)C2)CC1 (stereo not given),.,.,-3%,.,12%,.,?,4%
Cc1ccccc1NC(=S)N(CCCN1CCOCC1)Cc1ccccn1,-8%,-0.7%,-18%,12%,9%,2%,-16%,19%

# Single entries from the entries so far.
# NS1 inh result of `CC1=C(C(=O)OCc2ccccc2)C(c2ccc3ccccc3c2)NC(=O)N1CCCC(=O)O` (stereo not given) : 11%
# RE007 growth inh result of `O=C(CSc1ccc2nnc(CCNC(=O)c3ccccc3)n2n1)NCc1ccccc1` : 2%

# More records
SMILES,Cruzain noTriton,Cruzain Triton,2A StopGo,Marburg entry inh,RE007 growth inh,LASV entry inh,SARS PLP yeast,NS1 inh
COc1cnc(-c2ccccn2)nc1Oc1cccc(Cl)c1,13%,5.6%,-18%,?,-13%,-4%,-3%,-77%
Cc1ccc(NC(=O)C(C)c2ccc([N+](=O)[O-])cc2)cc1Cl (stereo not given),-3%,-7.7%,?,?,-11%,-15%,-63%,-26%
O=C(O)c1cc2c(s1)CCCC2,-2%,7.2%,0%,4%,-23%,-16%,0%,-48%
O=C(Nc1cc(Cl)cc(Cl)c1)c1ccc(F)c(S(=O)(=O)N2CCCCCC2)c1,11%,1.8%,?,.,.,?,.,.
Cc1cc(=O)n2[nH]c(SCc3ccccc3)nc2n1,10%,2.5%,6%,4%,-2%,6%,2%,6%
O=C(Cc1ccccc1)Nc1ccccc1N1CCN(c2ccccc2)CC1,-22%,-2.6%,.,?,16%,?,2%,-50%
Cn1cc(Br)c(C(=O)NC2C3CC4CC(C3)CC2C4)n1 (stereo not given),-14%,-0.9%,0%,?,13%[3.69 µM],?,-15%,-32%
C/C(=C\c1ccco1)CN1CCC(N2CCC(C(=O)N3CCOCC3)CC2)CC1,.,.,-13%,.,-4%,.,1%,6%
Cc1ccc(N2CC(C(=O)Nc3nnc(SCCN4CCOCC4)s3)CC2=O)cc1 (stereo not given),.,.,-19%,.,7%,.,2%,-4%
Cc1c(-c2ccccc2)nnn1-c1ccc(F)cc1F,.,.,29%,?,3%,?,-4%,-38%
COc1cc(C)ccc1OCCSc1nc2ccc(NC(=O)c3ccccc3F)cc2s1,-3%,-0.3%,-16%,?,.,5%[46.1 µM],.,.
N#Cc1ccccc1NC(=O)C(=O)NCCCN1CCCC1=O,.,.,-15%,20%,3%,7%,2%,.
N#Cc1ccc(COC(=O)CSc2nnc(C3CCCCC3)n2N)cc1,7%,0.9%,-10%,10%,5%,-9%,2%,4%
C#CCNC(=O)c1cc2sccc2n1C,.,.,15%,.,1%,.,-1%,-4%
COc1cc(C2C(C#N)=C(N)Oc3n[nH]c(C)c32)cc2c1OCO2 (stereo not given),-8%,0.4%,-6%,-2%,-1%,4%,-1%,-1%
Cc1cc2nnc(SCC(=O)Nc3ccc(Cl)cc3)n2c(N)n1,.,.,6%,10%[46.1 µM],23%,.,-2%,10%
CN(C)CCNc1oc(COc2cccc(Cl)c2)nc1C#N,2%,1.6%,-19%,-8%,0%,0%,-2%,-3%
O=C(Nc1c(F)cc(F)cc1F)c1cccn(Cc2ccccc2)c1=O,.,.,-12%,?,3%,?,2%,.
Cc1sc2nc(CSc3ccccc3)nc(N3CCN(C)CC3)c2c1C,11%,-11%,?,?,-15%,?,5%,0%
COc1ccc(/C=C/C(=O)C(C(N)=O)=C2SCCS2)cc1,7%,-5.8%,15%,-28%,-3%,-8%,15%,-3%

# In a second layout: results already given
# Value order – Cruzain noTriton, Cruzain Triton, 2A StopGo, Marburg entry inh, RE007 growth inh, LASV entry inh, SARS PLP yeast, NS1 inh
> C#CCNC(=O)c1cc2sccc2n1C
  ., ., 15%, ., 1%, ., -1%, -4%
> Cc1cc2nnc(SCC(=O)Nc3ccc(Cl)cc3)n2c(N)n1
  ., ., 6%, 10%[46.1 µM], 23%, ., -2%, 10%
> O=C(Nc1c(F)cc(F)cc1F)c1cccn(Cc2ccccc2)c1=O
  ., ., -12%, ?, 3%, ?, 2%, .

# Other structures follow.
SMILES,Cruzain noTriton,Cruzain Triton,2A StopGo,Marburg entry inh,RE007 growth inh,LASV entry inh,SARS PLP yeast,NS1 inh
CCOC(=O)CSc1nc2ccccc2n1CC(=O)NC(C)(C)C,2%,7.6%,-4%,7%,-4%,31%[14.3 µM],0%,?
Cc1cccn2c(=O)nc(SCC(=O)Nc3ccc4c(c3)OCO4)nc12,.,.,-1%,?,2%,2%,4%,.
CCc1ccc(S(=O)(=O)c2nnn3c2nc(N2CCC(C)CC2)c2cc(Cl)ccc23)cc1,-16%,-2.6%,-13%,-12%[46.1 µM],.,.,.,.
CCn1c(CNC(=O)COc2ccc(C(C)C)cc2)nnc1SCC(=O)NC1CCCCC1C (stereo not given),?,-5.5%,6%,-19%,14%,-26%,-6%,2%
CC(C)N(CCNC(=O)c1oc(=O)c2ccccc2c1-c1ccccc1)Cc1ccco1,.,.,-17%,-18%[46.1 µM],-18%,4%[46.1 µM],-3%,.
CCc1ccc(Oc2c(C(F)(F)F)oc3c(CN4CCC(C)CC4)c(O)ccc3c2=O)cc1,7%,-2.7%,-23%,-14%[46.1 µM],.,2%[46.1 µM],.,.
COc1ccc(C2/C=C\CN(C(=O)CC(C)C)CC(=O)N2Cc2ccc(F)cc2)cc1 (stereo not given),.,.,21%,.,6%,.,0%,1%
C=CCOC(=O)C1=C(C)OC(N)=C(C(=O)OCC)C12C(=O)N(CC(N)=O)c1ccccc12 (stereo not given),-1%,4.8%,-12%,1%,-1%,-6%,3%,-1%
Cc1ccc(C(=O)OCC(=O)NCCN2C(=O)CSC2=O)cc1,5%,-3.5%,-1%,-3%,-1%,10%,-20%,3%
